# VCAM-1 up – enhancers of VCAM-1 display on endothelial cells, cell-based, plate reader, pooled HUVEC, TNFa stimulus (AID 455); HUVEC TNFa-induced VCAM-1 immunofluorescence, plate reader; numbers were filed only for top-ranked candidate wells; augmentation, % at 5 µM; 10,000 compounds, 0.2% hits;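 active = a compound raising TNF-alpha-driven VCAM-1 surface staining, with its hit status upheld on visual or statistical review; inactive = the rest, including hits rejected on review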;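 note: 0% = TNFa with vehicle and 100% = strongest image-checked hit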
# 26S disassembly – inhibitors of ATP-driven 26S proteasome dissociation, primary screen, biochemical, bead-based flow cytometry, GFP-tagged proteasome | anti-FLAG beads, GFP-proteasome disassembly | inhibition of disassembly, % (no concentration beside the values) | 24,000 compounds, 0.2% hits;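 active = above 40%; inconclusive = likely self-fluorescent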;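 note: plate controls were ATP control with full disassembly for no effect and ATP-gamma-S intact proteasomes for full effect; higher percent means more bead fluorescence retained so stronger block of disassembly; stock transfer was 100 nL into about 10 µL; wells with too few beads may also be inconclusive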
# * = called active by the depositor; i = inactive; u = inconclusive; x = no result given. These rows are one share of the data; count on the stated rates, not on these rows.
SMILES,VCAM-1 up,26S disassembly
COc1ccc2c(c1)c(CC(=O)O)c(C)n2C(=O)c1ccc(Cl)cc1,i,-0.9
COc1ccc(OCC(=O)Nc2cc(-c3nn4c(C)nnc4s3)ccc2C)cc1,x,-1.2
Cc1ccc2c(c1)N(CCC(=O)NCCCOC(C)C)C(=O)C(C)O2 (configuration not stated),x,1.1
CCOC(=O)c1c(C)[nH]c(C(=O)Cn2c(=O)oc3ccccc32)c1C,i,0.1
Cc1cccc(-n2c(O)c(C=Nc3ccccc3N)c(=O)[nH]c2=O)c1,i,0.1
O=C(NCC1COCCO1)C1CCN(S(=O)(=O)c2ccccc2)CC1 (configuration not stated),i,-1.0
Cc1cc2c(cc(C(=O)NCc3cccnc3)n2Cc2ccc(Cl)cc2)o1,i,4.6
O=C(c1cnc2n(c1=O)CCS2)N1CCc2ccccc21,i,-0.3
O=C(Nc1ccc(OC(F)(F)F)cc1)C1CCCN(S(=O)(=O)c2cccnc2)C1 (configuration not stated),x,1.6
O=C(NCc1cccnc1)c1cnc2n(c1=O)CCS2,x,1.4
Cn1cnnc1SCC(=O)Nc1sc2c(c1C#N)CCCCC2,i,-1.4
Oc1ccc(-c2onc(C(F)(F)F)c2-c2cscn2)c(O)c1,i,0.8
Cc1ccc(-n2c(=O)c(C#N)cc3c(=O)n4ccccc4nc32)cc1,i,1.6
CCc1ccc(NS(=O)(=O)c2cccs2)cc1,i,-1.9
COc1cccc(CNc2nc3nc(C)c(Cl)c(C)n3n2)c1,i,1.4
O=C(O)c1cccc(N2CCCC2=O)c1,x,0.1
CCCOC(=O)c1ccc(NC(=O)c2cnccn2)cc1,x,2.7
O=C(O)C1CC=CCC1C(=O)Nc1cccc(F)c1 (configuration not stated),i,1.1
O=C(CSc1nc2ccsc2c(=O)n1-c1ccccc1)N1CCCC1,x,-0.8
CCOC(=O)c1c(C)nn(Cc2cccc(Cl)c2)c1N,x,5.4
CCN(c1ccccc1)c1nc2ccsc2c(=O)s1,x,-0.2
CCCS(=O)(=O)N1CCCC(C(=O)NC2CCCC(C)C2C)C1 (configuration not stated),i,-0.1
Cc1ccc(Cl)cc1NC(=O)CCn1cccc1,x,0.2
CCOC(=O)c1c(C)oc2ccc(OCC(=O)N(CC)CC)cc12,i,0.3

# Structural class: the entries above with fluorine.
SMILES,VCAM-1 up,26S disassembly
O=C(Nc1ccc(OC(F)(F)F)cc1)C1CCCN(S(=O)(=O)c2cccnc2)C1 (configuration not stated),x,1.6
Oc1ccc(-c2onc(C(F)(F)F)c2-c2cscn2)c(O)c1,i,0.8
O=C(O)C1CC=CCC1C(=O)Nc1cccc(F)c1 (configuration not stated),i,1.1

# (more compounds)
SMILES,VCAM-1 up,26S disassembly
CCOC(=O)CN1CC23C=CC(O2)C(C(=O)Nc2ccc(F)c(C)c2)C3C1=O (configuration not stated),x,0.7
CCCCc1nc(NCCNC(=O)c2ccco2)c(C#N)c2c1CSC(C)(C)C2,i,-1.1
CCOC(=O)c1nnn(-c2nonc2N)c1-c1cccc2ccccc12,x,-0.1
Cc1ccc(N(CC(=O)Nc2ccc3c(c2)OCCO3)S(=O)(=O)c2c(C)noc2C)cc1,x,-0.1
Cc1ccc(S(=O)(=O)NCc2ccc(C(=O)N3CCN(c4ccccn4)CC3)cc2)cc1,x,-0.3
CC1=C(C)C(=O)NC(Nc2nc(C)c3cc(C)cc(C)c3n2)N1 (configuration not stated),i,1.0
CC(C)(C)SCCNC(=O)CSc1ccccc1,i,2.5
CCOC(=O)c1cccc(NC(=O)C2CCCN(S(=O)(=O)c3c(C)nn(C)c3C)C2)c1 (configuration not stated),x,-0.9
COc1ccc(S(=O)(=O)Cc2ccc(C(=O)N3CCN(c4ccccc4)CC3)o2)cc1,i,0.1
CCOC(=O)/C=C1\SCC(=O)N1Cc1nnc(-c2ccccc2Br)o1,i,12
COC(=O)C1=C(C)Nc2nnnn2C1c1ccc(Cl)cc1Cl (configuration not stated),i,-0.3
COc1cccc(CNC(=O)C2CCN(S(=O)(=O)c3ccc(F)cc3)CC2)c1,i,1.1
COc1ccccc1CN1CCCC(C(=O)N(C)Cc2ccccc2)C1 (configuration not stated),i,0.7
CC(c1ccco1)N(C(=O)c1ccc(S(=O)(=O)N2CCCCC2)cc1)c1ccccn1 (configuration not stated),i,-0.2
CCC1CCCN1Cn1cnc2c([nH]c3ccccc32)c1=O (configuration not stated),x,0.1
COc1ccc(N2C(=O)C3CCCN3C2c2cccc(F)c2)cc1Cl (configuration not stated),x,24
CN1CCN(c2nc(-c3cccs3)cc(C(F)(F)F)n2)CC1,x,1.3
Cc1[nH]nc2c1C(c1cccc(OC(=O)N3CCOCC3)c1)C(C#N)=C(N)O2 (configuration not stated),x,-0.1
COc1cc(NC(=O)c2noc3c2CCCC3)c(OC)cc1Cl,x,0.9
Cn1nc(C(=O)Nc2cccc(C(F)(F)F)c2)ccc1=O,i,0.4
CCCOC(=O)NC(CC)COC(=O)Nc1cccc(C)c1C (configuration not stated),x,-0.5
CCc1cc(=O)n2[nH]c(C)c(-c3ccccc3OC)c2n1,i,-1.3
CC(C)CCNC(=O)C(c1ccco1)N(CC1CCCO1)C(=O)Cn1nnc2ccccc21 (configuration not stated),i,0.2
COc1ccc2cc3cc(C(=O)NCc4ccccn4)oc3nc2c1,x,-2.1
CCCCn1nnnc1SCC(=O)N1CCN(C(=O)c2ccco2)CC1,i,1.3
COc1ccc(S(=O)(=O)Nc2ccc(C)cc2)cc1OC,x,0.7
CCCCNC(=O)OCCNC(=O)Oc1cccc(C)c1,x,-0.6
CCOC(=O)N1CCC(NC(=O)CCc2c(C)nc3c(c(C)nn3-c3ccccc3)c2C)CC1,x,0.7
CSc1nc(C2CC2)cc(-c2cccs2)c1C#N,x,0.1
O=C(CSc1nnc(NC(=O)CN2CCOCC2)s1)Nc1ccccc1,x,1.9
CCOc1ccc(/C=N/n2cnnc2)cc1,i,0.5
Cc1ccc2oc(=O)c3cnn(CC(=O)N(CCC(C)C)Cc4ccco4)c3c2c1,x,2.2
CCn1c(=N)n(CC(=O)C23CC4CC(CC(C4)C2)C3)c2ccccc21,i,-0.3
CCCSc1nc2c(cnn2-c2ccc(Cl)cc2)c(=O)[nH]1,i,-0.5
CCOC(=O)CSc1nnc(CNC(=O)Cc2ccccc2)n1C,x,-0.9
COc1ccccc1CNC(=O)C1CCN(Cc2nc(-c3ccc(Cl)cc3)oc2C)CC1,x,6.0
Cc1cc(N2CCC(C)CC2)nc2ccc(N3C(=O)CCC3=O)cc12,x,2.5
CCOC(=O)N1CCN(c2c(NCCN(C)Cc3ccccc3)c(=O)c2=O)CC1,i,-0.7
CCOCCCN(Cc1cc2cc(C)cc(C)c2[nH]c1=O)C(=O)N(CC)CC,i,-5.0
CCCCN(CC)S(=O)(=O)N1CCC(C(=O)NCCCN2CCOCC2)CC1,x,0.1
CCOC(=O)N1CCC(NC(=O)Cn2cc3c(n2)CCCCC3)CC1,x,-1.1
COCCNC(=O)c1cc(-c2ccc(OC)c(OC)c2)on1,x,0.8
Cn1c2ccccc2c2c(C(=O)NCCCN3CCCC3=O)cn(C3CCCCC3)c(=O)c21,i,0.1
O=C(CCn1nc(-c2ccc(Cl)cc2)ccc1=O)N1CCOCC1,x,-0.3
CC(C)(C)n1ncc2c(=O)n(CC(=O)c3ccc(Cl)cc3)cnc21,x,-1.3
CC(C)(C)n1nc2c(c1NC(=O)COc1ccc(Cl)cc1)CSC2,i,0.8
O=C(NCc1ccccc1)C1CCN(S(=O)(=O)N2CCCCCC2)CC1,i,-0.7
O=c1cnnc(NCc2ccccc2)[nH]1,i,-0.6
Cc1onc(-c2ccccc2)c1C(=O)N1CCOCC1,i,-0.4
COc1ccc(N(C(=O)c2cccc(OC)c2OC)C2C=CS(=O)(=O)C2)c(OC)c1 (configuration not stated),x,0.0
CCNC(=O)c1c(C)[nH]c(C(=O)OCC)c1C,x,3.0
CS(=O)(=O)N(CC(=O)Nc1ccc2c(c1)OCO2)Cc1ccc(Cl)cc1,i,2.6
Cc1ccc(CNC(=O)CCCn2c(=O)[nH]c3ccccc3c2=O)cc1,x,1.6
COc1ccc(-c2cc(C(=O)N3CCN(C(c4ccccc4)c4ccccc4)CC3)no2)cc1,x,0.8
CCOC(=O)CN1CC23C=CC(O2)C(C(=O)O)C3C1=O (configuration not stated),x,-1.9
CCCCOCCCNC(=O)COc1ccccc1,i,2.0
CCCCCNC(=O)c1cc(S(=O)(=O)N2CCCCC2)ccc1F,x,-2.2
Cc1nc2ccc(S(=O)(=O)NCC(=O)N3CCC(N4CCCCC4)CC3)cc2s1,x,3.5
CCOC(=O)Cn1c(=O)oc2cc(S(=O)(=O)N3CCCC(C(=O)OCC)C3)ccc21 (configuration not stated),x,-5.3
Cn1c(=O)[nH]c(=O)c2c1nc(N1CCCCCC1)n2CCCSc1nc2ccccc2o1,i,-1.1

# Complete entries from above. Values in the order: VCAM-1 up	26S disassembly
# Record of CCCCCNC(=O)c1cc(S(=O)(=O)N2CCCCC2)ccc1F = x	-2.2
# Record of CS(=O)(=O)N(CC(=O)Nc1ccc2c(c1)OCO2)Cc1ccc(Cl)cc1 = i	2.6
# Record of CCOC(=O)Cn1c(=O)oc2cc(S(=O)(=O)N3CCCC(C(=O)OCC)C3)ccc21 (configuration not stated) = x	-5.3
# Record of COc1ccc(-c2cc(C(=O)N3CCN(C(c4ccccc4)c4ccccc4)CC3)no2)cc1 = x	0.8

# Remaining list, next part
SMILES,VCAM-1 up,26S disassembly
O=C(O)c1cc(O)c2c(c1)C(=O)c1cccc(O)c1C2=O,i,0.2
O=C(c1cc(-c2cccc(O)c2)on1)N1CCc2ccccc2C1,x,0.2
O=C(O)C1CC=CCC1C(=O)NCc1ccccc1 (configuration not stated),i,0.7
Cc1ccc(NC(=O)CSc2nnc(Cc3cccn3C)n2-c2ccc(F)cc2)c(C)c1,x,4.7
Cc1nnc(NC(=O)CSc2nc3c(c(=O)n2C)SC(C)C3)s1 (configuration not stated),i,1.6
CCOC(=O)N1CCC(NC(=O)CS(=O)(=O)Cc2nc(-c3ccc(C)cc3)oc2C)CC1,x,-0.8
N#Cc1c(N2CCOCC2)nc(N2CCCCC2)c2c1CCN(C1CCCCC1)C2,i,u
CC(=O)N1CCN=C1SCc1ccc(C)cc1,x,-0.5
CCN(CC)S(=O)(=O)N1CCC(C(=O)NC(C)CCc2ccccc2)CC1 (configuration not stated),x,-2.5
Cc1ccc(C2CC(c3cccc(C)c3)n3nc(N)nc3N2)cc1 (configuration not stated),x,0.6
CN1CCN(CCCNc2nc3ccccc3c3nc(-c4ccccc4)nn23)CC1,x,-0.8
CCCS(=O)(=O)Nc1c(C(=O)O)[nH]c2ccccc12,i,0.2
O=C(CS(=O)(=O)Cc1ccccc1)Nc1nc2ccccc2s1,i,0.7
CC(=O)N1CCc2cc(S(=O)(=O)NC(CC(C)C)C(=O)Nc3ccc4c(c3)OCCO4)ccc21 (configuration not stated),x,u
O=C(CCOc1ccccc1)NCc1ccccc1,i,-0.6
Cc1oc(C)c(C(=O)NCCCC(=O)O)c1C(=O)NCCCC(=O)O,x,-0.8
COc1ccc(CCNC(=O)c2cnccn2)cc1,x,9.8
Cc1ccsc1C1C2=C(CCCC2=O)Nc2ncnn21 (configuration not stated),i,-1.2
COc1cc(NC2=CC(=O)CC(C)(C)C2)cc(OC)c1,i,0.2
Cc1nn(Cc2ccc(Cl)c(Cl)c2)c(C)c1NC(=O)c1cc(CC(C)C)on1,x,-0.4
CC(=O)N1CCc2cc(S(=O)(=O)CCC(=O)O)ccc21,x,0.8
CC(=O)NC(C)C(=O)OCC(=O)Nc1ccc(Br)cc1 (configuration not stated),i,-0.1
Cc1cccc(NC(=O)CC2SC(=NC3CCCCC3)NC2=O)c1 (configuration not stated),x,-0.5
O=C(Nn1cnc2ccccc2c1=O)c1ccc(F)cc1Cl,x,2.4
CCOc1ccccc1N(CC(=O)NC1CCCC1)C(=O)CCCC(=O)Nc1ccccn1,i,-4.6
CN(C)c1ccc(NC(=O)Cn2ncn3c(cc4ccccc43)c2=O)cc1,x,-0.8
CC1CCN(C(C(=O)Nc2ccc3c(c2)OCO3)c2ccccc2)CC1 (configuration not stated),x,-1.8
CCCCOC(=O)Cn1c(=O)oc2ccc(C)cc21,i,u
O=S(c1ccsc1)c1ccsc1,i,1.2
COc1ccc(OC)c(NC(=O)C2CCCN(S(=O)(=O)c3c(C)noc3C)C2)c1 (configuration not stated),x,-2.6
CC12C(=O)N(c3ccccn3)C(=O)C1C1C=CC2C1 (configuration not stated),x,1.2
COC(=O)c1ccc(CSc2nc3c(cnn3-c3ccc(C)cc3)c(=O)[nH]2)o1,x,-0.5
CCOC(=O)N1CCN(S(=O)(=O)c2ccc3[nH]c(=O)sc3c2)CC1,x,-1.6
CCN(CC)C(=O)C1=C(C)NC(=O)NC1c1c(F)cccc1Cl (configuration not stated),i,0.2
CCS(=O)(=O)N1CCC(C(=O)NCc2ccco2)CC1,x,3.3
Nc1ccc(S(=O)(=O)c2ccc(N)cc2)cc1,i,0.0
CS(=O)(=O)N1CCc2cc(C(=O)N3CCCCC3)ccc21,i,2.1
CC(=O)Nc1ccc(S(=O)(=O)NCC(C)NS(=O)(=O)c2ccc(NC(C)=O)cc2)cc1 (configuration not stated),i,-4.6
O=C(C1CCN(S(=O)(=O)c2cccc3nsnc23)CC1)N1CCc2ccccc2C1,x,-0.5
O=C(Cn1cnc2c(oc3ccccc32)c1=O)N1CCN(c2ccccc2)CC1,i,-0.1
O=C1CN(C(=O)COC(=O)C23CC4CC(CC(O)(C4)C2)C3)c2ccccc2N1,i,4.1
Cc1c(C)c2cc(Cl)c(O)c(CN3CCCCC3)c2oc1=O,i,2.2
